Source: PubChem
Six1-Eya2 blk – blocks human Six1 binding to Eya2; AID 651725; AlphaScreen GST-Six1/His-Eya2 binding, biochemical; hits give low values; control for the full effect not named in the record; activity change, % (no concentration beside the values); hit rate 0.56% among 360,000; Q15475+O00167; in the data active = activity change below about -65%; inconclusive = about -30% to -65%; inactive = above about -30%; further: on the % scale 0 is the no-effect control and ±100 the full control effect; compound concentration not given in the record
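Homogeneous AlphaScreen proximity assay pairing GST-Six1 with His-tagged Eya2 (added as 5X mix: 250 nM and 500 nM) in 50 mM Tris pH 8.0, 300 mM NaCl, 1 mM TCEP. Glutathione donor and nickel acceptor beads; 1 h, 37 °C, dark.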
CtBP-E1A blk – inhibitors of CtBP/E1A interaction | AlphaScreen GST-E1A/His-CtBP binding, 1536-well; hits give low values; control for the full effect not named in the record | activity change, % (concentration not given with the values) | hit rate 0.49% among 340,000; in the data active means activity change below about -65%; inconclusive means about -30% to -65%; inactive means above about -30%; further: on the % scale 0 is the no-effect control and ±100 the full control effect
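Steps: dispense buffer (Tris pH 8.0, NaCl 300 mM, TCEP 1 mM, BSA, Tween 20); add 5X protein mix (GST-E1A, His-CtBP, 125 nM each); pin 23 nL compound; 2 h at 37 °C, dark; add 5X beads (50 ug/mL); 1 h; read.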
PINK1 expr mod – PINK1 expression modulation. AID 624263. PINK1 immunofluorescence, high-content cytometry, 24 h. hit rate 0.2% among 410,000. Potency, µM (highest dose often 76.6 µM), inactives show at the highest dose activation (PINK1 increase), most hits filed as activators; active = well fitted activation curve with a large enough effect; inconclusive = small, poorly fitted or top-dose-only effect; inactive = flat fitted curve, though single readings scatter; cell line not stated here;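 further: potency means the concentration at half of the fitted maximal effect; % of control where 0% means no effect; nearly all actives have a fitted effect of over 65% in size; a mitochondrial uncoupler was the plate control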
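Compound titrations (5 concentrations, 24 h) on a stable cell line; DMSO and CCCP controls. Endpoint: fixed-cell PINK1 immunofluorescence with mitochondrial, cell and nuclear markers, scanned by microplate cytometer.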
TRPML1 agonist – activates the human TRPML1 channel. Q9GZU1. TRPML1-expressing cells, Ca2+ dye fluorescence, FDSS; host cell line not named in the record; reference of the full effect not given here. activation, % (test concentration not listed). hit rate 0.12% among 410,000; in the data active = activation above about 50%; inconclusive = about 30% to 50%; inactive = below about 30%; further: 0% is about no effect; the text of the record puts the active cut at 80%
Target sequence (Q9GZU1 whole entry, looked up): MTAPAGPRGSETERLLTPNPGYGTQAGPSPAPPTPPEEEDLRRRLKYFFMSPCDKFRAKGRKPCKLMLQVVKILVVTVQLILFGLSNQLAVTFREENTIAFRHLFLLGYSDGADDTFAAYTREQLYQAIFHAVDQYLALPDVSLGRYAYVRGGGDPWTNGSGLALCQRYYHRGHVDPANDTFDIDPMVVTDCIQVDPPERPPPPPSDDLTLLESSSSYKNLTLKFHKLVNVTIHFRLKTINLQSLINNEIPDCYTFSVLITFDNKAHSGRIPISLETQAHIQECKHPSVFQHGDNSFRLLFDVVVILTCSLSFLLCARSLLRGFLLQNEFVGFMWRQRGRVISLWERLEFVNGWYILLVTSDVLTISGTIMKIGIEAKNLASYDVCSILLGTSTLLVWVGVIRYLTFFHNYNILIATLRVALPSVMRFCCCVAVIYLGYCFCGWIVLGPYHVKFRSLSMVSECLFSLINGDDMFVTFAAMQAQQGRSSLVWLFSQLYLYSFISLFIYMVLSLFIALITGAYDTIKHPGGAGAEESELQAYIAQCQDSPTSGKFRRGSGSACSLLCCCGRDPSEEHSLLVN
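Cells: TRPML1-DL, 1X Tet inducer, ~16 h at 37 degrees C/5% CO2. Dye: ABD Ca8 no-wash + quencher, 45-90 min RT. Read: 10 s baseline, compound add, 110 s agonist phase; 54-4 EC80 (4uM final), 110 s antagonist phase.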
D2 agonist – activates the human D2 dopamine receptor. P14416. DiscoveRx PathHunter D2 beta-arrestin, luminescence, 90 min; 100% = 57 uM dopamine signal. activation, % (test concentration not listed). hit rate 0.084% among 360,000. AID 624465; in the data active = activation above about 40%; inconclusive = about 15% to 40%; inactive = below about 15%; further: compound concentration not given in the record; the text of the record calls up to 30% inactive
Target sequence (P14416 whole entry, looked up): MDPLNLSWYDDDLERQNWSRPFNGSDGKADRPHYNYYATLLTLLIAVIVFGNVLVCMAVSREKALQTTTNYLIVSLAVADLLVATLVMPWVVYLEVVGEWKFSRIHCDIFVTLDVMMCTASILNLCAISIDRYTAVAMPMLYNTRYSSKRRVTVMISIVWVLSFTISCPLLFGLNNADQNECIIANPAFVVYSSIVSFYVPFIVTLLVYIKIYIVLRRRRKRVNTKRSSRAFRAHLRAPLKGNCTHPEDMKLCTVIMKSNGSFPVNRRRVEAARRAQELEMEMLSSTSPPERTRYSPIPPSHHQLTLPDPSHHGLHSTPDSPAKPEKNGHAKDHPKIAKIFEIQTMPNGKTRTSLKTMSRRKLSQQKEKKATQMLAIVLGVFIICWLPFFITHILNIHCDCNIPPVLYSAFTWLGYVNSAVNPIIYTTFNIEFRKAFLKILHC
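Agonist mode: compounds alone added to overnight-plated D2 PathHunter cells for 90 min at 37 C, with 57 uM final dopamine (EC100) defining full response. Beta-arrestin recruitment detected by chemiluminescent reagent, read after 1 h at ambient temperature.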
D2 PAM – human D2 receptor positive allosteric modulation; P14416; DiscoveRx D2 beta-arrestin cells, luminescence, 90 min; 100% = 57 uM dopamine signal; potentiation, % (no concentration beside the values); hit rate 0.23% among 360,000; active = potentiation of 50% or more; inconclusive = 30% to 50%; inactive = 30% or less;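 further: compound concentration not given in the record; tested on top of an EC20 dose of dopamine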
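PathHunter D2 cells, attached overnight at 37 deg C, received compound in DMSO plus dopamine at EC20 (50 nM final) for 90 min at 37 deg C. Beta-arrestin recruitment was read as luminescence after 1 h with detection reagent at ambient temperature.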
Starred values were filed as active, the others as inactive; ? = inconclusive; . = not tested or not shown; & = joins results of further samples; [ ] = another dose, or the depositor's remark.

smiles | Six1-Eya2 blk | CtBP-E1A blk | PINK1 expr mod | TRPML1 agonist | D2 agonist | D2 PAM
CCCCN(C(=O)c1cc(S(=O)(=O)N2CCOCC2)ccc1Cl)c1c(N)n(CC(C)C)c(=O)[nH]c1=O | 3 | -1 | 2.1% | -0.7 | -0.1 | -5
OCCN1CN=C(Nc2nc3ccccc3s2)NC1 | 0 | 0 | -0.1%[38.3 µM] | -0.3 | -0.8 | 2
CC(C)(C)NC(=O)CC1C[C@H](C(=O)N2CCOCC2)[C@@]2(CCC3CCCC3)c3[nH]c4ccccc4c3CCN2C1=O (stereo partly specified) | 0 | -13 | 4.4% | 0.6 | -2.6 | .
COCCn1c(SCC(=O)NCc2ccc3c(c2)OCO3)nc2ccccc2c1=O | -3 | -2 | -0.7% | -0.1 | 8.0 | 4
Cn1c(CNC(=O)c2ccco2)nnc1SCC(=O)N1c2ccccc2Sc2ccccc21 | -22 | -6 | -1.5% | 1.4 | -3.5 | -7
Cn1cnnc1SCc1ccc(C(=O)n2ncc(C#N)c2N)cc1 | 4 | -1 | -2.0% | -0.4 | -3.3 | -4
CC1CCCC(NC(=O)CN2C(=O)COc3ccccc32)C1C (stereo unspecified) | 3 | . | 1.6% | 0.0 | 3.0 | 1
O=C(NCCOc1ccccc1F)c1cc([N+](=O)[O-])ccc1N1CCOCC1 | -4 | -18 | -0.1% | -0.4 | 0.3 | -9
C[C@]12c3[nH]c4ccc(Cl)cc4c3CCN1C(=O)[C@@H](CC(=O)NCCCn1ccnc1)C[C@@H]2C(=O)N1CCOCC1 | -1 | -2 | 1.2% | -0.9 | 0.4 | -5
Nc1n[nH]c(-c2ccc([N+](=O)[O-])cc2[N+](=O)[O-])n1 | 10 | . | 3.1% | 1.2 | 0.2 | 3
Cc1ccc(CSc2nc3c(cc2C#N)CCC3)cc1 | 5 | 8 | 0.5% | -0.2 | -2.1 | 11
CSCC[C@H](NC(=O)[C@@H]1Cc2ccccc2CN1)C(=O)Nc1cccc(C)c1 | -13 | -24 | -1.5% | 0.9 | -4.5 | -51
COc1ccccc1CNC(=O)c1ccc(CS(=O)(=O)c2ccccc2)o1 | -5 | 4 | -3.5% | 1.4 | -3.5 | 2
COc1ccc(NC(=O)CCNC(=O)Cn2ccc3ccccc3c2=O)c(OC)c1 | -2 | 6 | 0.6% | -0.1 | 0.2 | -15
CCN(CC)C(=O)c1[nH]cnc1C(=O)N[C@@H](Cc1ccccc1)C(=O)OCc1ccccc1 | -4 | 3 | -1.1% | -1.1 | -1.9 | -5
C[C@@H]1CC=C[C@H]2[C@H]1C(=O)N(Cc1ccccc1)[C@H]2c1ccoc1 | -7 | 0 | 1.5% | 0.1 | -2.0 | -8
Cc1cccc(C(=O)NC(=S)Nc2ccccc2C(F)(F)F)c1 | -13 | -7 | 8.3% | 1.3 | -4.7 | -23
CCOc1ccccc1N(CC(=O)NCCSCc1ccco1)S(=O)(=O)c1ccccc1 | -20 | -7 | 3.5% | 2.1 | -2.6 | 22
Cc1ccc(N(CCCCN2C(=O)c3ccccc3C2=O)C(=O)c2ccc(Cl)s2)cc1 | 8 | -1 | 4.7% | 0.5 | -2.5 | 2
Cc1cc(C)c(C(N)=O)c(SCC(=O)c2ccc(Cl)cc2)n1 | 8 | 0 | -3.1% | 2.1 | 1.0 | -3

A draw from above in order of number of heavy atoms, lowest first:
smiles | Six1-Eya2 blk | CtBP-E1A blk | PINK1 expr mod | TRPML1 agonist | D2 agonist | D2 PAM
CSCC[C@H](NC(=O)[C@@H]1Cc2ccccc2CN1)C(=O)Nc1cccc(C)c1 | -13 | -24 | -1.5% | 0.9 | -4.5 | -51
CCN(CC)C(=O)c1[nH]cnc1C(=O)N[C@@H](Cc1ccccc1)C(=O)OCc1ccccc1 | -4 | 3 | -1.1% | -1.1 | -1.9 | -5
C[C@]12c3[nH]c4ccc(Cl)cc4c3CCN1C(=O)[C@@H](CC(=O)NCCCn1ccnc1)C[C@@H]2C(=O)N1CCOCC1 | -1 | -2 | 1.2% | -0.9 | 0.4 | -5

Next section:
smiles | Six1-Eya2 blk | CtBP-E1A blk | PINK1 expr mod | TRPML1 agonist | D2 agonist | D2 PAM
Cc1ccc(C(=O)NCC(=O)OCC(=O)NC2CCCCCCC2)cc1 | 10 | -2 | 0.7% | 1.1 | -2.7 | -18
CC(=O)Nc1ccc(S(=O)(=O)N(C)CC(=O)OCC(=O)c2ccc3c(c2)NC(=O)CO3)cc1 | -9 | 6 | 2.6% | 0.0 | -4.2 | -10
O=C(CNC(=O)c1ccc(S(=O)(=O)N2CCCC2)cc1)N/N=C/c1ccc(Cl)cc1Cl | 11 | 1 | ? | 1.0 | -0.5 | -12
O=C(Nc1ccccc1)c1ccccc1NC(=O)C1CCCCC1 | 0 | 13 | 2.0% | -1.0 | -3.6 | 13
O=S1(=O)CCC(NCC2CCCO2)C1 (stereo unspecified) | 2 | -4 | 0.4% | -0.1 | -0.4 | 7
COc1cc(-c2noc(C3CCCN(C(=O)c4ccccc4)C3)n2)cc(OC)c1OC (stereo unspecified) | 17 | 0 | 2.7% | 2.1 | 4.9 | 1
O=C(Nc1ccc(Cl)c(S(=O)(=O)N2CCCCC2)c1)c1ccncc1 | -15 | -7 | 2.8% | 0.4 | -3.1 | 1
COc1ccc(C2C(C(=O)c3ccco3)=C(O)C(=O)N2c2nnc(C)s2)cc1OC (stereo unspecified) | 10 | 3 | 0.2% | 11 | -3.9 | -1
O=C(C1CCN(C2CC(=O)N(Cc3ccccc3)C2=O)CC1)N1CCCCCC1 (stereo unspecified) | 4 | 1 | -1.6% | 0.3 | 0.5 | -12
CN(CC(=O)Nc1cc(Cl)ccc1Cl)C1CCS(=O)(=O)C1 (stereo unspecified) | 4 | 2 | 1.4% | 0.3 | -3.3 | 0
O=C(NN=C1CCCC1)c1ccc(Cl)cc1 | -7 | . | 0.7% | 1.3 | -3.5 | -18
CC(C)Cc1[nH]c(=O)c(C#N)c2c1COC(C)(C)C2 | 6 | -1 | 0.4% | 0.1 | -2.8 | 14
COc1ccccc1C(=O)Nc1cc2cc(Br)ccc2oc1=O | 0 | 0 | ? | 1.2 | 0.7 | -5
CCCCCCCCCCCCN1C/C(=C\C(=O)OCC)c2ccccc2S1(=O)=O | 20 | 22 | 28% | 0.1&1.5 | 0.4 | -7
CC(C)=CC(=O)O[C@H]1[C@@H]2[C@H](C)C(=O)O[C@@H]2C[C@@H](C)[C@@H]2[C@@H](O)CC(=O)[C@]21C | 9 | 8 | 3.6% | -0.3 | -1.6 | -6
COc1cccc(NC(=O)Cn2c(-c3cncs3)nc3ccccc32)c1 | -24 | -7 | -0.6% | 1.7 | -2.4 | -15
O=C(N/N=C/c1cccnc1)c1ccc([N+](=O)[O-])cc1Cl | 2 | 13 | 0.0%[38.3 µM] | 1.6 | 3.9 | 16
O=C(COC(=O)CNC(=O)c1ccccc1)NCCCc1ccccc1 | 4 | 0 | -2.6% | 0.6 | -3.2 | -5
COCCCNC(=O)c1c(N)n(-c2cccc(S(N)(=O)=O)c2)c2nc3ccccc3nc12 | -12 | -5 | 0.4% | -0.6 | 0.8 | -3
O=C(c1nn2c(C(F)(F)F)cc(-c3ccc(F)cc3)nc2c1Cl)N1CCOCC1 | -8 | 1 | 2.0% | -0.3 | -1.0 | 23
Cc1ccc(C)c(N(CC(=O)NCc2ccc3c(c2)OCO3)C(=O)CCC(=O)Nc2ccccn2)c1 | -18 | -4 | -0.7% | 1.8 | -0.6 | -8
Cc1cc(C)cc(C(=O)NCC(=O)OCC(=O)N2CCCCC2)c1 | 5 | 16 | 0.0% | -0.9 | 2.6 | -4
CCOc1ccc(NC(=O)C2CCC(N3C(=O)C4CC=CCC4C3=O)CC2)cc1 (stereo unspecified) | -1 | 0 | -0.1% | 1.5 | -3.5 | -20
Cc1ccc(NS(=O)(=O)c2cc(C(=O)N3CCCC3)ccc2C)cc1C | 7 | 3 | -1.6% | 0.8 | 5.6 | 6
CCCCCCNS(=O)(=O)c1ccc(NC(=O)C2CCCO2)cc1 (stereo unspecified) | -3 | 1 | 5.6% | 0.2 | -2.6 | -2
C(=N\Nc1ccccn1)/c1ccc(N2CCOCC2)cc1 | -10 | -17 | 2.4% | -0.2 | 0.0 | -7
COc1ccc2nc(N3CCCCC3)c(C#N)cc2c1 | 75 | 43 | 1.0% | 62* | -0.8 | 4
COc1ccc(Nc2c(-c3ccco3)nc3cccc(C)n23)cc1 | -18 | 0 | 0.2%&6.5% | 1.4&0.2 | -1.4 | 0
Cc1cc(S(=O)(=O)Cc2noc(-c3c(C)noc3C)n2)c(C)cc1Cl | 2 | -7 | -3.0% | 120* | -0.7 | 8
CCCOc1ccccc1OCC(=O)Nc1ccc(S(=O)(=O)N2CCCC2)cc1 | -7 | 7 | -2.3% | 1.4 | -5.5 | -17
CC(=O)Nc1ccc2nc(CN3CCC(CO)(CCc4ccccc4)CC3)ccc2c1 | -9 | -4 | 2.2% | 0.4 | -2.6 | -3
COc1cc2c(cc1OC)CN(C(=O)c1ccco1)CC2 | 6 | . | -0.3% | 1.1 | 4.6 | -11
CCN(CC)C(=O)COc1ccc(-c2nnc(Nc3ccc(OC)c(C(=O)NC)c3)c3ccccc23)cc1 | -17 | -5 | 7.8%&2.6% | 0.1&1.1 | 1.8 | -3
COc1ccc(-c2ccc3ccccc3n2)cc1 | 23 | 17 | 2.4% | 1.3 | -1.6 | -5
O=C(N/N=C/c1cc2c3c(c1O)CCCN3CCC2)c1ccccc1O | -90* | -66* | ? | 2.9 | 0.4 | 8
COc1ccc(-c2cc(C(=O)Nc3cc(C)ccc3O)no2)cc1 | 7 | 7 | 0.7% | 1.2 | 2.3 | -2
c1ccc2c(c1)ccc1nnc(SCc3ccc4c(c3)OCO4)n12 | 0 | -19 | -0.2% | -0.5 | 2.8 | -2
O=C(/C=C(\O)c1ccccc1)C(=O)NNC(=O)c1ccccc1[N+](=O)[O-] | -15 | 0 | -0.1% | 1.5 | -0.7 | -16
O=C1C2C3C=CC(C3)C2C(=O)N1c1ccc(-c2nc3ccccc3o2)cc1 (stereo unspecified) | 4 | 6 | 1.0% | -0.6 | -2.8 | 14
O=C(C[C@H]1C/C=C\CC[C@@H](Cc2ccc(F)cc2)C(=O)OCCNC1=O)NCCO | 6 | 5 | 1.2% | -0.5 | -1.7 | -4
Cc1cc([N+](=O)[O-])nn1Cc1ccc(F)cc1 | -1 | 2 | 0.5% | 1.2 | 3.5 | 2
O=C(CN1C(=O)NC(Cc2c[nH]c3ccccc23)C1=O)Nc1cccc(S(=O)(=O)N2CCOCC2)c1 (stereo unspecified) | 2 | . | 1.7% | -1.0 | -2.3 | -5
CC(C)NC(=O)C1(C)CCCCCN1C(=O)c1ccc(-c2ccccc2)cc1 (stereo unspecified) | 7 | -11 | -0.5% | -0.5 | -3.1 | -10
O=C(Nc1ccc(S(=O)(=O)N2CCCC2)cc1)C1CCCCC1 | 13 | 3 | 2.3% | 0.0 | 6.6 | -3
